Assay outcomes: PubChem BioAssay, National Center for Advancing Translational Sciences (NCATS)
Vaccinia Venus: inhibitors of vaccinia virus (Venus reporter) | Vaccinia virus Venus reporter expression, fluorescence | Potency, µM (highest dose often 36.5 µM), inactives show at the top dose activity change, negative = inhibition, most hits filed as inhibitors | 330,000 compounds, 0.46% hits | AID 720580; active means well fitted inhibition curve with a large enough effect; inconclusive means small, poorly fitted or top-dose-only effect; inactive means no such curve, though single readings can be large or run the other way; tested in A549 cells; also: nearly all actives have a fitted effect of over 30% in size; inactives centre near -10
Vaccinia mCherry: vaccinia inhibition (mCherry reporter). Vaccinia virus mCherry reporter infection, fluorescence; about a quarter of the inactives have no number. Potency, µM (top dose mostly 36.5 µM), for inactives: at the highest dose activity change, negative = inhibition, most hits filed as inhibitors. 310,000 compounds, 0.63% hits; active = well fitted inhibition curve with a large enough effect; inconclusive = small, poorly fitted or top-dose-only effect; inactive = no such curve, though single readings can be large or run the other way; tested in A549 cells; also: nearly all actives have a fitted effect of over 35% in size; inactives centre near -10
* marks the source's active call; other numbers are inactive results; i = inactive; u = inconclusive; x = no result given; & = joins results of further samples; [ ] = remark or other dose. % is scaled to controls: 0 for no effect and ±100 for the full control effect; potency is read from the fitted curve at half-maximal effect.

Values run as follows: Vaccinia Venus | Vaccinia mCherry
#1 CN(C)CCCN(C(=O)COc1ccccc1)c1nc2cc3c(cc2s1)OCO3
  -19% | i
#2 COc1ccc(OC)c(-c2oc3ccccc3c(=O)c2O)c1
  -20% | x
#3 COc1ccc(NC(=O)COC(=O)C(NC(=O)c2ccc(C)cc2)C(C)C)cn1 (stereo not drawn)
  -9% | i
#4 CC[C@@H](C)[C@@H](C(=O)N1CCNCC1)n1cc(CCC(=O)O)nn1
  0% | i
#5 COc1ccc(N/C(=C2\CCCC2=O)C2CCCCC2)cc1
  -5% | -8%
#6 Nc1ccc(/C=C/c2nccc3ccccc23)cc1
  9% | -26%
#7 COc1cc(CNn2c(C)n[nH]c2=S)cc(Br)c1OCc1ccc(F)cc1
  -14% | -25%
#8 CCOc1cc(N2CCOCC2)c(OCC)cc1NC(=O)CN1CCCC(C)C1 (stereo not drawn)
  10% | -23%
#9 N#Cc1cc2ccccc2n2nnnc12
  -10% | i
#10 COc1ccc(NC(=O)c2csc3c2CCCCC3)c(OC)c1
  -9% | -11%
#11 COc1ccc(CNc2oc(Cc3cccc4ccccc34)nc2C#N)cc1
  -26% | x
#12 COc1ccc(CCNC(=O)CN2CCN(S(=O)(=O)c3ccc(Cl)cc3)CC2)cc1OC
  -27% | -7%
#13 COC(=O)C1=C(C)N(C)C(=S)N(C)C1c1cccc(Br)c1 (stereo not drawn)
  -10% | -6%
#14 Cc1ccc(S(=O)(=O)N2CCN(C(=O)CSc3ncn[nH]3)CC2)cc1
  -7% | i
#15 COC(=O)c1cc(=O)n(-c2c(Cl)cc(C(F)(F)F)cc2Cl)[nH]1
  1%[7.34 µM] | -2%[7.34 µM]
#16 Cc1ccc(S(=O)(=O)/N=C2/NC(=O)/C(=C/c3ccccn3)S2)cc1
  -16% | i
#17 C=CC[C@@H](CC(=O)OC(C)(C)C)C(=O)OC[C@H]1CCCN1C(=O)[C@@H](CC=C)CC(=O)N(CCO)Cc1ccccc1
  u | i
#18 CN(C)S(=O)(=O)c1ccc(N2CCCC2)c(C(=O)Nc2nc3c(ccc4ccccc43)s2)c1
  0% | i
#19 O=C(NCCN1CCCCC1)c1cc(COc2c(F)cccc2F)on1
  -20% | -19%
#20 COc1cc2c(cc1NC(=O)CSc1ccccn1)oc1ccccc12
  -23% | u
#21 CCN1CCN(S(=O)(=O)c2ccc(Cl)c(C(=O)N(C)Cc3ccc(Cl)cc3Cl)c2)CC1
  u | -29%
#22 CCC(=O)N1CCCC(C)(C(=O)Nc2ccc(OC(F)F)cc2)C1 (stereo not drawn)
  9% | 35%[activator]
#23 Cc1ccc(C)c(N2CCN(C(=O)c3cc(S(=O)(=O)N4CCCC4)cn3C)CC2)c1
  -20%&-9% | -5%&-16%
#24 COc1ccc(-c2cn3c(n2)sc2cc(C(=O)NCCCN4CCCCC4)ccc23)cc1
  u | u
#25 Cc1cc(NC(=O)CCC(=O)N(Cc2ccco2)C2(C(=O)NC3CCCC3)CCCCC2C)no1 (stereo not drawn)
  -5% | -5%
#26 CCc1cc(=O)oc2c(C)c3c(cc12)CN(CCc1ccccc1)CO3
  3% | -3%
#27 CCN(Cc1ccccc1)C(=O)C1CCN(S(=O)(=O)c2c(C)noc2/C=C/c2ccc(C)cc2)CC1
  -14%[7.34 µM] | -18%[7.34 µM]
#28 NC(=O)c1cccc(-c2ccnc3c2CC(C(=O)NCc2ccc(F)c(F)c2)O3)c1 (stereo not drawn)
  -23% | u
#29 Cc1ccc(CNC(=O)Cn2cc(C(=O)c3ccc(Cl)cc3)c(=O)c3ccc(C)nc32)cc1
  -14% | -10%
#30 COc1ccccc1CNC(=O)CCNS(=O)(=O)c1ccc2c(c1)oc(=O)n2C
  -6%&-5% | -17%&-2%
#31 O=C(C1=NN(c2ccccc2)C2C(=O)N(c3ccccc3)C(=O)C12)c1ccccc1 (stereo not drawn)
  -2% | -12%
#32 COc1cc(NC(=O)Cc2ccc(S(=O)(=O)N3CCOCC3)s2)c(OC)cc1Cl
  -12% | i
#33 CCOC(=O)C(=COC(=O)c1ccccc1)NC(=O)Cc1ccccc1
  -2% | -15%
#34 Cc1cc(N/N=C/c2ccccc2Cl)nc(NCc2ccccc2)n1
  u | 13µM*
#35 CCCOC(=O)CCCN1C(=O)/C(=C2\SC(=S)N(CCCC(=O)OCCC)C2=O)SC1=S
  35%[activator] | -15%
#36 O=C(O)/C=C/c1cnn(-c2ccccc2)c1
  0% | -3%
#37 C=CCNCCCCOc1ccc(Br)cc1C
  -11% | -20%
#38 COc1ccccc1/C=C(\C#N)C(=O)Nc1ccc(S(N)(=O)=O)cc1
  -16% | -14%
#39 O=S(=O)(Cc1noc(-c2ccccc2Cl)n1)c1ccccn1
  -20% | -1%
#40 CCOP(=O)(OCC)C1(O)C(=O)Nc2ccccc21 (stereo not drawn)
  0% | -12%
#41 C#CCN1CC(C)/C(=N/O)CC1C (stereo not drawn)
  1% | x
#42 COc1ccc(C(=O)COC(=O)Cc2c[nH]c3ccccc23)c(OC)c1
  -7% | i
#43 COc1cccc(C(=O)NCc2nnc(SCC(=O)Nc3nccs3)n2-c2ccccc2)c1
  -26% | -3%
#44 COc1cc(C#Cc2c(-c3ccccc3OC)oc3ccccc23)cc(OC)c1
  -8% | i
#45 CCc1ccc2occ(CC(=O)Nc3c(C(=O)Nc4ccc(Cl)cc4)oc4ccccc34)c2c1
  -17% | -12%
#46 O=C(O)CSc1nnc(-c2ccc(O)cc2)o1
  3% | -4%
#47 CCC(Oc1ccccc1)C(=O)N1CCN(c2ccccn2)CC1 (stereo not drawn)
  -13% | x
#48 Cc1oc2c(CN3CCCC3)c(O)ccc2c(=O)c1-c1ccc(Cl)cc1
  -10% | x
#49 NC(=O)c1c(NC(=O)c2cc3ccccc3o2)sc2c1CCC2
  -28% | -15%
#50 CCOCCCn1c(=N)c(S(=O)(=O)c2ccc(C)cc2)cc2c(=O)n3cccc(C)c3nc21
  -4% | -6%
#51 CCOc1c(Br)cc(CNc2ccc(N3CCN(C(C)=O)CC3)cc2)cc1OC
  12%[7.34 µM] | u
#52 Cc1ccccc1NC(=O)c1cccc(OCc2c(C)noc2C)c1
  -17% | -25%
#53 O=C(NCc1ccco1)/C(=C/c1ccc(Br)cc1)NC(=O)c1ccco1
  -4% | i
#54 Cc1ccccc1OCCn1cc(C(=O)C2CCCCC2)c2ccccc21
  -14% | -17%
#55 O=C1C=CC(=O)N1c1ccc(-c2nc3ccccc3o2)cc1
  -14% | i
#56 Cc1ccc(S(=O)(=O)NCC(=O)Nc2ccc3c(c2)OCO3)cc1
  4% | u
#57 COc1ccc(C2C(C#N)=C(C)NC3=C2C(=O)CC(C)(C)C3)c(OC)c1 (stereo not drawn)
  -8% | x
#58 FC(F)(F)Oc1ccccc1C(c1nnnn1C1CCCC1)N1CCN(C/C=C/c2ccccc2)CC1 (stereo not drawn)
  -7% | i
#59 COc1cc(OC)cc(C(=O)N(Cc2nc(-c3cccc(C)c3)no2)C(C)C)c1
  -9% | x
#60 C=C1NN(Cc2ccc(OC)cc2)C(=O)N1c1ccccc1
  -5% | -14%

Full records as entered above. Screens in order: Vaccinia Venus, Vaccinia mCherry
`Cc1ccc(S(=O)(=O)N2CCN(C(=O)CSc3ncn[nH]3)CC2)cc1` is listed with -7%, i
`CC[C@@H](C)[C@@H](C(=O)N1CCNCC1)n1cc(CCC(=O)O)nn1` is listed with 0%, i
`O=C(O)/C=C/c1cnn(-c2ccccc2)c1` is listed with 0%, -3%

New compounds follow.
Values run as follows: Vaccinia Venus | Vaccinia mCherry
#61 CCn1cc(CN2CCC(C(=O)Nc3ccc(Oc4cccnc4)cc3)CC2)c(C)n1
  -11% | i
#62 Cc1nc(C(=O)N2CCOCC2)sc1C1(C)CC(c2ccccc2)=NO1 (stereo not drawn)
  7% | -9%
#63 COc1ccccc1C(=O)N1CCCC(c2nc(-c3cc(OC)c(OC)c(OC)c3)no2)C1 (stereo not drawn)
  -15% | -24%
#64 CCCCn1nnnc1NCc1cccnc1
  -19% | -9%
#65 Cc1ccc(NC(=O)c2cc3nc(-c4ccccc4)cc(-c4ccccc4)n3n2)cc1
  -2% | -7%
#66 O=C1c2ccccc2C(=O)N1CC#CCN1CCN(C2CCCCC2)CC1
  -20% | x
#67 C[C@@H]1O[C@@H](Oc2c(-c3ccc(O)c(O)c3)oc3cc(O)cc(O)c3c2=O)[C@H](O)[C@H](O)[C@H]1O
  -4%&-3% | i
#68 COc1ccc(N2C=C3C(=O)C(C)(OC(=O)CCc4ccccc4)C(=O)C=C3C=C2c2ccc(C#N)cc2)cc1 (stereo not drawn)
  -19% | 7%
#69 O=Cc1cn(Cc2ccccc2F)c2ccccc12
  -8% | u
#70 CCSC1C(=O)N(C)C(SCC)C(=O)N1C (stereo not drawn)
  -13% | -12%
#71 Cc1ccc(C(=O)OCC(=O)NCc2cccs2)cc1S(=O)(=O)N1CCOCC1
  -4% | i
#72 Cc1nnc(SCC(=O)NCc2ccccc2Cl)[nH]c1=O
  -10% | i
#73 O=C(COc1cccc(NC(=O)c2cccc([N+](=O)[O-])c2)c1)c1ccc(Br)cc1
  u | x
#74 CN(c1ccccc1)S(=O)(=O)c1cccc(NC(=O)c2cncc(Br)c2)c1
  -27% | i
#75 CC(=O)Nc1ccc(-c2nc3ccccc3c(=O)o2)cc1
  -11% | -2%
#76 CC(C)(C)OC(=O)N/N=C\c1ccc(OC(=O)c2ccco2)cc1
  -2% | -6%
#77 CCn1c(Cc2ccccc2)nnc1SCC(=O)Nc1ccc(OC)cc1
  -16% | -11%
#78 CC(C)N(Cc1ccccc1)C(=O)COC(=O)C1CCN(c2ccc(C(F)(F)F)cn2)CC1
  1% | -8%
#79 CC1CN(C(=O)c2cc(S(=O)(=O)N3CCCC3)c(Cl)cc2Cl)CC(C)O1 (stereo not drawn)
  -13% | i
#80 CN(CP(=O)(O)C(O)c1ccccc1)S(C)(=O)=O (stereo not drawn)
  11% | x

Quoted at random: 2 compounds from above, in no set order.
Values run as follows: Vaccinia Venus | Vaccinia mCherry
#47 CCC(Oc1ccccc1)C(=O)N1CCN(c2ccccn2)CC1 (stereo not drawn)
  -13% | x
#23 Cc1ccc(C)c(N2CCN(C(=O)c3cc(S(=O)(=O)N4CCCC4)cn3C)CC2)c1
  -20%&-9% | -5%&-16%

The listing continues:
Values run as follows: Vaccinia Venus | Vaccinia mCherry
#81 Cc1c(N2CCCCC2)[nH]c2ccccc12
  -11% | i
#82 O=C(CSc1nc(N2CCCCC2)nc(N2CCCCC2)n1)N1CCN(c2ccccc2)CC1
  -19% | x
#83 CC(C)(C)NC(=O)N1CCN(c2nc3ccc(Cl)cc3s2)CC1
  -13% | -9%
#84 CC(C)c1ccc(C(=O)N2CCN(CCO)CC2)cc1
  -28% | x
#85 Cc1ccc(S(=O)(=O)Nc2ccc(Nc3nccn4c(-c5cccc(OC(F)(F)F)c5)cnc34)cc2)cc1
  -18% | u
#86 COc1ccc(-c2cc(C)no2)cc1S(=O)(=O)Nc1cccc(C(F)(F)F)c1
  -17% | -18%
#87 Cc1ccc(N(CCCCN2C(=O)c3ccccc3C2=O)C(=O)c2cccs2)cc1
  -13% | -22%
#88 O=C(NCCc1ccc(Cl)cc1)c1ccc2nc(N3CCOCC3)sc2c1
  -24% | i
#89 Oc1ccc(Cl)c2cccnc12
  -28%&-14% | u
#90 O=c1c2ccccc2n2nnnc2n1-c1ccccc1
  -12% | x
#91 O=C(NCC1Cc2cccc(-c3cnccn3)c2O1)C1COc2ccccc2O1 (stereo not drawn)
  -12% | i
#92 CCN(CC)C(=O)Oc1ccc(Br)cc1C(=O)Nc1ccc(F)c(Cl)c1
  -7% | -21%
#93 CCOC(=O)N1CCN(C(=O)c2cn(CC(C)C)c(=O)c3c2c2ccccc2n3C)CC1
  -12% | i
#94 O=C(N/N=C/c1ccc(O)c(O)c1)N/N=C/c1ccc(O)c(O)c1
  -3% | u
#95 C=CCn1c(-c2cc(-c3ccccc3)sc2N)n[nH]c1=S
  -22% | -23%
#96 COCCN1Cc2cccc(C(=O)Nc3ccc(Cl)cc3Cl)c2C1=O
  -7% | -13%
#97 Cc1ccc(Nc2cc(-c3ccccc3)nc(C)n2)cc1
  -11% | -11%
#98 COc1cccc2cc(C(=O)C3=C(O)C(=O)N(CCN4CCOCC4)C3c3cccs3)oc12 (stereo not drawn)
  -5% | x
#99 CCN(CC)S(=O)(=O)c1ccc(Cl)c(NC2=NCCCCC2)c1
  -7% | i
#100 O=C(NCc1ccco1)c1ccc(-c2ccccc2Cl)o1
  -2% | i
#101 Cc1ccc(OCC(=O)Nc2ccc(CN3CCOCC3)cc2)cc1C
  -28% | -35%
#102 Cc1ccc(C(C)(C)C)c(OCCOCCN2CCCC2)c1
  -11% | -23%
#103 COCCN(CCOC)C(=O)Nc1ccc(Cl)cc1
  -13% | -15%
#104 Cc1ccc(S(=O)(=O)NCCC(=O)Nc2ccc(C)cc2C(=O)c2ccccc2)cc1
  -17% | -29%
#105 Cc1ccc(-c2csc3ncnc(NS(=O)(=O)c4ccc(Cl)cc4)c23)cc1
  -23% | -15%
#106 O=C(c1ccc2c(c1)CCN2S(=O)(=O)c1ccc(Cl)cc1)N1CCN(c2ccccc2)CC1
  -18% | -20%
#107 O=C(C[C@H]1CC[C@H]2[C@@H](COC[C@@H](O)CN2Cc2cc(F)ccc2F)O1)NCc1ccc(Cl)cc1
  -30% | u
#108 C=CCSc1nc(-c2ccccc2)c(C#N)c(=O)[nH]1
  -10% | i
#109 OCC[C@@H]1C[C@H](O)[C@@H](O)[C@]2(OCCc3ccccc32)O1
  -4% | -15%
#110 COC(=O)c1scc(-c2ccccc2)c1S(=O)(=O)Nc1ccccc1
  -7% | 0%
#111 Cc1noc(C)c1COc1ccc(C(=O)N2CCCC(C(F)(F)F)C2)cc1 (stereo not drawn)
  -11% | -9%
